# YopH PTP inh: blocks Yersinia enterocolitica YopH tyrosine phosphatase; fluorescence Ex485/Em525; inhibition, %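 (about 10 µM by stock and volumes)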; hit rate 0.16% among 140,000;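 active means inhibition of 50% or more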;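 further: controls were vehicle for no effect and minimum signal wells for full effect; inactives centre near -20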
# Arbovirus anti: blocks arbovirus infection; arbovirus infection cell-based antiviral screen; inhibition, % at 10 µM; hit rate 0.37% among 200,000; AID 1251;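 active means inhibition from about 30%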;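 further: bluetongue infection of BSR cells; cell survival read as ATP light after 72 h; 0% = infected wells without compound and 100% = uninfected wells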
# RecA intein inh: inhibitors of M. tuberculosis RecA intein splicing; P9WHJ3; inhibition, %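 (about 9 µM by stock and volumes)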; cell-free RecA intein splicing, fluorescence; AID 2221; hit rate 0.75% among 290,000; in the data active means inhibition above about 30%; inconclusive means no clear call, values can overlap the other calls;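 further: 0% = vehicle wells and 100% = reference inhibitor control wells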
# Target sequence (P9WHJ3 whole entry, looked up): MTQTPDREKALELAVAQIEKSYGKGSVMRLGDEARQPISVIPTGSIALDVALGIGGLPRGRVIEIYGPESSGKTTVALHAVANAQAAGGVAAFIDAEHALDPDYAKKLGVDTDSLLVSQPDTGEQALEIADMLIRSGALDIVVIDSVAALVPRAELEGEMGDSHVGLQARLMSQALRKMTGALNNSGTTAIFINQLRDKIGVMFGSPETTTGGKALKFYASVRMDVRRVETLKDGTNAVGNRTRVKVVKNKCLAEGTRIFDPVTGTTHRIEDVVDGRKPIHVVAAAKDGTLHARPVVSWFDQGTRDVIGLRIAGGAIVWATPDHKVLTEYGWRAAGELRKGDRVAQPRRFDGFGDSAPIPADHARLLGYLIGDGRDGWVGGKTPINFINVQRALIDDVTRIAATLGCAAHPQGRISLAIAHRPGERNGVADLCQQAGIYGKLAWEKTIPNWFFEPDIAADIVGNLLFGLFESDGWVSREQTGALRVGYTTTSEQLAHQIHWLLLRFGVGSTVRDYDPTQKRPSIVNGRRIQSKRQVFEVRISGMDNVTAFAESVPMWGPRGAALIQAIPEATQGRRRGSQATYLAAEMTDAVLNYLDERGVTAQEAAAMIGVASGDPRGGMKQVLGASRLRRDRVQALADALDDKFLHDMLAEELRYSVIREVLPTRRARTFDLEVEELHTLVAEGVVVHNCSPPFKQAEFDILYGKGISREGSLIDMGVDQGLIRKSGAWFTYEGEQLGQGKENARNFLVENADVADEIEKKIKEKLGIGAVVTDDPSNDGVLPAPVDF
# Mtb growth: M. tuberculosis H37Rv growth inhibitors, H37Rv strain (AID 1626); hit rate 0.95% among 220,000; inhibition, % at 10 µM, or IC50 in µM where a hit was titrated; M. tuberculosis H37Rv growth inhibition; higher % means a stronger effect;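 active means confirmed in a dose series; inconclusive means inhibition above 80% but not taken into the dose series; inactive means below 80% or under 30% at every dose of the series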;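 further: bacteria incubated seven days before Alamar blue readout; 0% = bacteria only wells and 100% = bacteria with antibiotic wells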
# Mtb bLac sens: beta-lactam sensitization of Mtb H37Rv; M. tuberculosis H37Rv growth with meropenem, percent inhibition; hits of this screen are not shown here; hit rate 0.27% among 330,000; inhibition, % at 25 µM; AID 434955;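 active means about 74% or more and at least 40 points above the plate without the antibiotic, then above 30% in a dose series; inconclusive means first-round hits that could not be retested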;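 further: growth measured after seven days incubation then overnight dye step; 0% = bacteria only wells and 100% = bacteria with antibiotic; twin plates without the antibiotic show which effects depend on it; some results filed as inactive read as strong as hits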
# Arbovirus anti repeat: second read-out of Arbovirus anti, no call of its own (marks repeat the call); inhibition, %; measured here: 10K subset replicate screen; many hits read low in the repeat;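 first of two repeat runs on a subset; 0% = infected and 100% = uninfected wells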
# * marks the source's active call; other numbers are inactive results; ? = inconclusive; . = not tested or not shown. These rows are one share of the data; rates above refer to the full screens.
SMILES,YopH PTP inh,Arbovirus anti,RecA intein inh,Mtb growth,Mtb bLac sens,others
O=C(Nc1cc(C(=O)N2CCCC2)ccc1N1CCCC1)c1ccccc1F,-16,10,-2.4,-3%,7,
O=C(O)CCc1ccc(-c2ccc(F)cc2)n1CCC(=O)O,-42,1,2.8,-5%,1,
O=C(CCC(=O)Nc1cccc2ccccc12)N/N=C/c1ccco1,-25,-1,-0.8,-4%,-7,
COc1ccc(Cl)cc1NC(=O)N1CCN(CCc2ccccc2)CC1,-17,-5,1.0,1%,17,
Nc1nc(SCCN2C(=O)c3ccccc3C2=O)n[nH]1,-24,9,-2.2,-4%,6,
Cc1ccc(NS(=O)(=O)c2ccc3[nH]c(=O)[nH]c3c2)cc1,.,.,2.8,.,2,
Cc1cc(=O)n(C)c2ccccc12,.,0,3.6,-7%,1,
COc1ccc(OCC(O)CN(C)C(=O)/C=C/c2cccc([N+](=O)[O-])c2)cc1 (centres undefined),.,-1,1.0,3%,3,
CCNC(=O)O/N=C(\C)c1sc(-c2ccccc2)nc1C,-38,-9,0.8,11%,5,
CC(=O)c1ccccc1OC(=O)c1ccc([N+](=O)[O-])o1,.,.,-0.8,-8%,-6,
Fc1ccc(C(c2nnnn2C2CCCC2)N2CCN(Cc3ccccc3)CC2)cc1 (centres undefined),-11,8,1.7,-1%,.,
O=C1CC(c2ccccc2)CC(=O)N1c1ccccc1,.,.,2.5,-8%,-9,
COC(=O)C1=C(C)N(CCCC(=O)O)C(=O)NC1c1ccc(C(F)(F)F)cc1 (centres undefined),.,.,-1.9,.,2,
COC(=O)c1ccccc1NC(=O)C1CCCC1,-1,0,15,-3%,-7,
COC(=O)c1[nH]c(C)c(/C(O)=C2\C(=O)C(=O)N(CCN(C)C)C2c2ccccc2OC)c1C (centres undefined),-28,-9,-0.9,-1%,-4,
Cc1ccc(C(=O)CN(C(=O)c2ccc(Cl)cc2)N2C(=O)CCC2=O)cc1,.,2,0.4,1%,2,
O=C1CC(c2nc3ccccc3[nH]2)CN1c1ccccc1 (centres undefined),1,18,-0.7,4%,-1,
COc1ccc(C(=O)OCC(=O)N2CCCCC2)cc1[N+](=O)[O-],.,0,.,-2%,-3,
COC(=O)C(C)N1C(=O)S/C(=C/c2cc(C)n(C(C)C)c2C)C1=O (centres undefined),-12,7,2.5,-7%,6,
CCCCn1cc(C(C)(C)C)c(C#N)c1NC(C)=O,-35,16,1.5,-6%,0,Arbovirus anti repeat=-1
CC1CCc2c(sc(NC(=O)CSc3nnc(-c4ccccc4)o3)c2C#N)C1 (centres undefined),-27,20,-1.1,44%,5,
O=C(c1cc2cc(Br)ccc2o1)N1CCOCC1,.,5,-0.1,2%,5,
C/C(=N/N=C(/N)SCc1ccccc1)C(C)(C)C,.,-4,0.3,1%,6,
CCOc1ccccc1C(C(=O)NCCOC)N(CCOC)C(=O)Cn1nnc2ccccc21 (centres undefined),.,3,-1.4,2%,-1,
CCOc1cc(S(=O)(=O)Nc2ccc(Cl)cn2)ccc1F,-24,-3,27,-3%,-7,
CC1CCN(C(=O)CCNS(=O)(=O)c2ccc3c(c2)oc(=O)n3C)CC1,.,.,0.0,.,-2,
Nc1cc(=O)[nH]n1C1CCN(c2ccccc2)CC1,-25,-7,0.6,-1%,-6,
O=C(NCCOc1cccnc1)C1CCC(=O)N(Cc2ccccc2F)C1 (centres undefined),.,.,-2.8,.,-5,
COC(=O)C1=C(C)OC(N)=C(C#N)C1c1ccc(OC)c(CSc2ccccn2)c1 (centres undefined),-27,-4,-1.2,-8%,6,
COc1cc2nc(C3CC3)n(NC(=O)c3ccc(F)cc3)c(=O)c2cc1OC,-13,-2,-1.2,-10%,-10,
CNC(=O)C(=O)N/N=C/c1ccccn1,.,4,-1.5,-8%,-8,
Cc1ccc(/C=C/C(=O)NC(C)c2ccccc2)cc1 (centres undefined),-26,-5,3.1,-4%,17,
COc1ccccc1NC(=O)c1ccc2nc(N3C(=O)CCC3=O)sc2c1,-23,4,-3.4,-4%,-14,
COc1ccc(CCN(C)C(=O)c2cc(S(=O)(=O)NCc3ccccc3)ccc2C)cc1OC,.,.,2.6,.,-1,
CCc1ccccc1NC(=O)c1cc([N+](=O)[O-])ccc1N1CCOCC1,.,.,-1.5,.,-4,
Cc1ccc(C(=O)N/N=C/c2ccc(OC(=O)c3ccccc3Cl)cc2)cn1,.,.,11,.,89,
CC(=O)OC(C(=O)NCCc1ccccc1)c1cccnc1 (centres undefined),-35,10,-0.5,1%,-12,
Cc1nc2ccc(NC(=O)c3ccc(S(=O)(=O)N(C)C)cc3)cc2s1,.,9,3.0,41%,2,
CCOc1ccc(C(=O)NCCCn2ccnc2)cc1,-10,3,-2.0,-18%,1,
CC(=O)Oc1cccc(N2C(=O)CC(Nc3ccc(N4CCOCC4)cc3)C2=O)c1 (centres undefined),-2,-7,-11,2%,-2,

# Filtered by structure: those above containing a COOH group
SMILES,YopH PTP inh,Arbovirus anti,RecA intein inh,Mtb growth,Mtb bLac sens,others
O=C(O)CCc1ccc(-c2ccc(F)cc2)n1CCC(=O)O,-42,1,2.8,-5%,1,
COC(=O)C1=C(C)N(CCCC(=O)O)C(=O)NC1c1ccc(C(F)(F)F)cc1 (centres undefined),.,.,-1.9,.,2,

# Continuation.
SMILES,YopH PTP inh,Arbovirus anti,RecA intein inh,Mtb growth,Mtb bLac sens,others
CCc1csc(CCNC(=O)C2CCC(=O)N(Cc3cccc(C(F)(F)F)c3)C2)n1 (centres undefined),.,.,2.2,.,-26,
O=C(Cn1nc(-c2ccccc2Cl)ccc1=O)Nc1ccccc1-c1ccccc1,.,-10,8.9,-2%,-3,
Cc1c(Cl)ccc2sc(NC(=O)CN3C(=O)c4ccccc4C3=O)nc12,-33,-3,-5.3,.,-1,
O=C(COC(=O)c1cc(=O)[nH]c2ccc(Br)cc12)c1ccccc1,.,2,9.9,1%,1,
O=C(NCCCN1CCCC1=O)c1cccs1,-34,7,1.7,.,-2,
CCOC(=O)c1cc(C(=O)Nc2ccccc2F)nn1C,-23,-3,0.6,-1%,-2,
CC(C(=O)N1CCCc2ccccc21)N1C(=O)c2ccccc2C1=O (centres undefined),-7,-7,1.1,-3%,-3,
Cc1csc2nc(O)c(C(=O)NCCCc3ccccc3)c(=O)n12,.,.,4.4,.,2,
C=CCOC(=O)C1=C(C)NC(C)=C(C(=O)OCC=C)C1c1cn(-c2ccccc2)nc1-c1ccco1,-28,2,-0.9,3%,0,
O=[N+]([O-])c1ccc(N2CCN(CCO)CC2)cc1Sc1ccccn1,.,-3,-0.3,-2%,3,

# Brought forward from above: 7 entries, then new ones.
SMILES,YopH PTP inh,Arbovirus anti,RecA intein inh,Mtb growth,Mtb bLac sens,others
O=C(COC(=O)c1cc(=O)[nH]c2ccc(Br)cc12)c1ccccc1,.,2,9.9,1%,1,
O=C(NCCCN1CCCC1=O)c1cccs1,-34,7,1.7,.,-2,
CCOC(=O)c1cc(C(=O)Nc2ccccc2F)nn1C,-23,-3,0.6,-1%,-2,
CC(C(=O)N1CCCc2ccccc21)N1C(=O)c2ccccc2C1=O (centres undefined),-7,-7,1.1,-3%,-3,
Cc1csc2nc(O)c(C(=O)NCCCc3ccccc3)c(=O)n12,.,.,4.4,.,2,
C=CCOC(=O)C1=C(C)NC(C)=C(C(=O)OCC=C)C1c1cn(-c2ccccc2)nc1-c1ccco1,-28,2,-0.9,3%,0,
O=[N+]([O-])c1ccc(N2CCN(CCO)CC2)cc1Sc1ccccn1,.,-3,-0.3,-2%,3,
Cc1ccc(NC(=O)CSc2n[nH]c(-c3ccco3)n2)cc1,.,1,3.0,55%,.,
COC(=O)c1ccc(OC(=O)c2ccc(OC)cc2)c(OC)c1,.,10,2.7,7%,29,
Cc1sc(NC(=O)/C=C/C(=O)O)c(C(N)=O)c1-c1ccc(C(C)(C)C)cc1,-25,-5,61*,3%,4,
COC(=O)c1ccc(C(=O)Nc2nc3cc(N)c(C)cc3s2)cc1,.,.,-1.5,.,5,
CCCOc1ccc(N2C(=O)C3ON(c4ccccc4)C(c4ccc(O)c(OC)c4)C3C2=O)cc1 (centres undefined),-15,2,1.7,.,9,
O=C(Cc1ccccc1)Nc1c(Cl)ccc2nsnc12,.,.,-1.4,-8%,-2,
CCOC(=O)Cc1csc(NC(NC(=O)OCC)(C(=O)OCC)C(F)(F)F)n1 (centres undefined),-30,1,1.1,7%,-4,
Cc1ccnc(NC(=O)CCC(=O)N(CC(=O)NCc2ccc(F)cc2)c2ccc(F)cc2)c1,.,.,6.4,.,-5,
O=C(Nc1cc([N+](=O)[O-])ccc1F)c1ccc2ccccc2c1,.,.,5.7,.,-8,
COc1ccc(CCn2c(C)ccc2C)cc1OC,-11,1,-2.6,4%,-5,
CC1(C)CC(=O)C=C(NNC(=O)c2ccc(N)cc2)C1,-14,2,-0.5,0%,3,
O=C(COC(=O)c1cccc(-n2cnnn2)c1)Nc1c(Cl)cccc1C(F)(F)F,.,.,0.2,.,0,
Nc1nn(-c2cccc(F)n2)cc1-c1ccc(Cl)cc1,.,1,-2.3,3%,.,
COc1cc(NC(=O)C2=CC(c3cccs3)=NS(=O)(=O)N2C)cc(OC)c1OC,.,.,2.3,.,-4,
Cc1cc(NC(=O)CCC(=O)N(Cc2ccco2)C2(C(=O)NC3CCCC3)CCCCC2)no1,.,.,-1.8,.,1,
Cc1noc(C)c1COC(=O)/C=C/c1ccc(Cl)cc1,.,2,0.4,-6%,1,
CC(C)c1ccc(C2/C(=C(/O)c3ccccc3)C(=O)C(=O)N2CCCN2CCOCC2)cc1 (centres undefined),.,.,4.3,.,-1,
COc1ccc(CC(=O)Nc2ccc(-c3nnc(-c4ccccc4)o3)cc2)cc1,-32,-6,.,.,11,
COc1cnc(-c2ccccn2)nc1Oc1ccc(C(C)(C)C)cc1,.,.,8.2,.,85,
COc1ccc(CN2CCN(Cc3cccc(F)c3)CC2)cc1OC,.,.,1.6,.,2,
CCOCCCNC(=O)CSCc1nc(-c2ccc(SC)cc2)oc1C,.,-3,-1.5,4%,2,
O=C(CN1CCN(c2ncccn2)CC1)NCCC1=CCCCC1,-36,-7,1.2,-8%,4,Arbovirus anti repeat=-9
O=c1c2ccccc2c(-c2ccc(Br)cc2)nn1Cc1ccccc1,19,4,1.1,8%,24,
COc1ccc(-c2cc(CNC(=O)CCl)on2)cc1,-40,6,37*,39%,99,
CNC(=O)CSc1n[nH]c(-c2cc(Cl)ccc2OC)n1,.,-7,0.2,-6%,7,
COc1cc(Br)cc(/C=N/NC(=O)Cc2ccc(C(F)(F)F)cc2[N+](=O)[O-])c1O,-6,-35,-1.5,-6%,?,
Cc1ccc(-c2noc(CSc3nnc(-c4ccncc4)n3-c3ccc(C)cc3)n2)cc1,23,0,10,-5%,15,
CC1CN(C(=O)CN(C)S(=O)(=O)c2ccc3ccccc3c2)CC(C)O1 (centres undefined),.,.,-2.6,.,-8,
Cc1cc(C)nc(NS(=O)(=O)c2ccc(NC(=O)NC3CCCCC3)cc2)n1,-47,-3,-0.1,-5%,-4,
COC(=O)c1cc(OC)c(OC)cc1NC(=O)CN1C(=O)c2ccccc2C1=O,4,3,0.3,-4%,-25,
COc1ccc(-n2nc(C(=O)NCC(=O)N3CCC(C(N)=O)CC3)c3ccccc3c2=O)cc1OC,.,.,0.4,.,1,
CC(C)(C)n1nnnc1C(c1cccnc1)N1CCN(c2ccccc2F)CC1 (centres undefined),-41,0,.,-7%,-4,
O=C(NCCc1ccccc1)C(=O)NCC1CCCN1S(=O)(=O)c1ccccc1 (centres undefined),.,.,1.9,.,-4,
CC(=O)OCc1c(-c2ccccc2)c2cc([N+](=O)[O-])ccc2n1C,.,.,-1.4,.,80,
C/C(N)=C(/C#N)C(=O)CSc1nc2ccccc2c(=O)n1-c1ccccc1C,-32,-3,1.3,4%,5,
COc1cccc2c(C)nc(Nc3nc(CSc4nnc(C)s4)cc(=O)[nH]3)nc12,12,-4,-0.8,-3%,?,
CCCCNC(=O)c1cc(S(=O)(=O)N2CCCCC2)oc1C,.,.,-0.6,.,-15,
COc1ccc(NC(=S)NC(C)c2ccncc2)cc1OC (centres undefined),.,9,-4.3,1%,-1,
CC(=O)c1cccc(NC(=O)c2ccccc2OCc2ccc(F)cc2)c1,.,.,1.9,.,10,
CC(C(=O)NCc1ccc(F)cc1)c1ccc([N+](=O)[O-])cc1 (centres undefined),.,2,0.4,12%,8,
CC(C(=O)NCc1ccco1)n1cc(C(=O)c2ccco2)c2ccccc21 (centres undefined),-21,7,0.5,-4%,-3,
O=C(NC1CC2CCCC(C1)N2C(=O)Nc1ccccc1)c1ccncc1 (centres undefined),-39,-5,1.3,-5%,-2,

# Assay outcomes: PubChem, several laboratories
